RecA intein inh = Mtb RecA intein splicing inhibitors, primary screen, biochemical, fluorescence, HTS; cell-free RecA intein splicing; inhibition, %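 (about 9 µM by stock and volumes)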; 290,000 compounds, 0.75% hits; Protein RecA (Mycobacterium tuberculosis (strain ATCC 25618 / H37Rv)), P9WHJ3; in the data active = inhibition above about 30%; inconclusive = no clear call, values can overlap the other calls;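 note: 0% = vehicle wells and 100% = reference inhibitor control wells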
Target sequence (P9WHJ3 whole entry, looked up): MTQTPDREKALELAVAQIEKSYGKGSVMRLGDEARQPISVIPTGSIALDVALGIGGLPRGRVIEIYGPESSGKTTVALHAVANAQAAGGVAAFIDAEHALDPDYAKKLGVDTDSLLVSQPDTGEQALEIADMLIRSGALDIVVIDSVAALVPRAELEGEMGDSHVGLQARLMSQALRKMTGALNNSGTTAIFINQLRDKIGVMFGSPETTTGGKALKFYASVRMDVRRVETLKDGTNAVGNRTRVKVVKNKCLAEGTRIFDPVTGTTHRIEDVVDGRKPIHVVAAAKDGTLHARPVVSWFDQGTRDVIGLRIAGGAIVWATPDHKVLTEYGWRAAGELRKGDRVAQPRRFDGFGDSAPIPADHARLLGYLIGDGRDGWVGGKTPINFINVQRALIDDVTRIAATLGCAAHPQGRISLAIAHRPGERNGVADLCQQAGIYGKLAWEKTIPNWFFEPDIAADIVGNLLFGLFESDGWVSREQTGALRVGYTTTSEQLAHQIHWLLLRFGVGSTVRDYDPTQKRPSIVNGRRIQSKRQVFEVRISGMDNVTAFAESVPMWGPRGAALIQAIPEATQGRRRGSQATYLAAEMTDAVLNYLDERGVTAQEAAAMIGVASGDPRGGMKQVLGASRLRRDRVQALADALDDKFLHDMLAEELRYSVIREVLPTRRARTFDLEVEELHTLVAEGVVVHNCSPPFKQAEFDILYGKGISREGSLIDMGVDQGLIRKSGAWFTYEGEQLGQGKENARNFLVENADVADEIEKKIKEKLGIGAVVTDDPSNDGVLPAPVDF
YopH inh = YopH tyrosine phosphatase inhibitors, primary screen, biochemical, fluorescence Ex485/Em525; YopH tyrosine phosphatase [Yersinia enterocolitica]; 140,000 compounds, 0.16% hits; AID 898, 2007; inhibition, %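 (about 10 µM by stock and volumes)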;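 active = inhibition of 50% or more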;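 note: controls were vehicle for no effect and minimum signal wells for full effect; inactives centre near -20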
Mtb bLac sens = beta-lactam sensitization of Mtb H37Rv, H37Rv. M. tuberculosis H37Rv growth with meropenem, percent inhibition; hits of this screen are not shown here. inhibition, % at 25 µM. 330,000 compounds, 0.27% hits. AID 434955, 2010;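 active = about 74% or more and at least 40 points above the plate without the antibiotic, then above 30% in a dose series; inconclusive = first-round hits that could not be retested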;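 note: growth measured after seven days incubation then overnight dye step; 0% = bacteria only wells and 100% = bacteria with antibiotic; twin plates without the antibiotic show which effects depend on it; some results filed as inactive read as strong as hits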
Mtb H37Rv = M. tuberculosis H37Rv growth inhibitors, H37Rv strain (AID 1626). M. tuberculosis H37Rv growth inhibition; higher % means a stronger effect. inhibition, % at 10 µM, or IC50 in µM where a hit was titrated. 220,000 compounds, 0.95% hits;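 active = confirmed in a dose series; inconclusive = inhibition above 80% but not taken into the dose series; inactive = below 80% or under 30% at every dose of the series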;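 note: bacteria incubated seven days before Alamar blue readout; 0% = bacteria only wells and 100% = bacteria with antibiotic wells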
Arbovirus anti = antivirals against arbovirus infection, primary screen, cell-based, full library, 10K replicate subset; arbovirus infection cell-based antiviral screen; inhibition, % at 10 µM; 200,000 compounds, 0.37% hits; AID 1251, 2008;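 active = inhibition from about 30%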;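 note: bluetongue infection of BSR cells; cell survival read as ATP light after 72 h; 0% = infected wells without compound and 100% = uninfected wells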
The depositor's hits bear a star.

For COc1cc(NC(=O)c2ccc3c(c2)OCO3)ccc1NC(=O)c1cccs1 the results were RecA intein inh 0.9, Mtb bLac sens -4, Mtb H37Rv -3% and Arbovirus anti -27.
Screening Cc1ccc(S(=O)(=O)N(C)/C(=N/S(=O)(=O)c2ccccc2)c2ccccc2)cc1 returned RecA intein inh -0.8, YopH inh -36, Mtb bLac sens 4, Mtb H37Rv 9% and Arbovirus anti -4.
For Cc1cccc(OCC(=O)O/N=C(\N)c2ccccn2)c1C the results were RecA intein inh 11, YopH inh -8, Mtb bLac sens 0, Mtb H37Rv 3% and Arbovirus anti -7.
For COC(=O)C(C)NC(=O)c1cn(-c2ccccc2OC)c(=O)c2ccccc12 (configuration not stated) the results were RecA intein inh 5.6 and Mtb bLac sens 2.
Screening CCc1ccc(C(=O)CC2(O)C(=O)N(CN3CCOCC3)c3ccccc32)cc1 (configuration not stated) returned RecA intein inh 2.2, YopH inh -48, Mtb bLac sens -1, Mtb H37Rv 3% and Arbovirus anti 4.
`CN1CCN(c2ccc(Cl)cc2NC(=O)c2cccc(S(=O)(=O)N(C)C)c2)CC1` gave RecA intein inh 1.8, YopH inh -73, Mtb bLac sens 1, Mtb H37Rv -1% and Arbovirus anti -8.
CCC(=O)Nc1cccc(C(=O)OCC(=O)c2ccccc2Cl)c1 was read as RecA intein inh -2.2, YopH inh -16, Mtb bLac sens 0, Mtb H37Rv -2% and Arbovirus anti 1.
Screening CNC(=S)N1N=C(c2ccc(C)cc2)CC1c1ccc(N(C)C)cc1 (configuration not stated) returned RecA intein inh 3.8, Mtb bLac sens 6, Mtb H37Rv 2% and Arbovirus anti 21.
`O=C1CSCN1c1cc(Cl)ccc1Cl` gave RecA intein inh -2.9, Mtb bLac sens 2, Mtb H37Rv 0% and Arbovirus anti -1.
For CS(=O)(=O)c1cccc(-c2nnc(NC(=O)C3=COCCO3)o2)c1 the results were RecA intein inh -0.7 and Mtb bLac sens -8.
Screening O=C(NCCc1ccccc1)c1ccc(-n2cnnn2)cc1 returned RecA intein inh -1.7, YopH inh -19, Mtb bLac sens inconclusive, Mtb H37Rv -1% and Arbovirus anti 6.
Screening COc1cc2c(cc1OC)C(C(=O)N(C)Cc1ccccc1)C(c1cccnc1)N(C)C2=O (configuration not stated) returned RecA intein inh 0.0, Mtb bLac sens -11, Mtb H37Rv 1% and Arbovirus anti -4.
For CCC1C(=O)NCCN1Cc1nc(-c2ccc(C)s2)oc1C (configuration not stated) the results were RecA intein inh 0.0, Mtb bLac sens 6, Mtb H37Rv -9% and Arbovirus anti 6.
For Nc1nnnn1CC(=O)N/N=C/c1ccccn1 the results were RecA intein inh 0.8, Mtb bLac sens -8 and Mtb H37Rv -1%.
`COc1ccc(CC(=O)Nc2cccc(C(=O)Nc3cccc(C)c3)c2)cc1` gave RecA intein inh -1.6, Mtb bLac sens 1, Mtb H37Rv -3% and Arbovirus anti -8.
O=C(CN1CC(=O)Oc2ccccc21)OCC(=O)c1ccccc1 was read as RecA intein inh 6.8, YopH inh -28, Mtb bLac sens 4, Mtb H37Rv -11% and Arbovirus anti -13.
`CCOC(=O)N1CCC(NC(=O)C2=CCN(S(=O)(=O)c3ccc(OC)cc3)CC2)CC1` gave RecA intein inh -1.4, Mtb bLac sens -10 and Mtb H37Rv -8%.
For COc1cc(OC)cc(C(=O)NCC(=O)OCc2csc(-c3ccccc3)n2)c1 the results were RecA intein inh -1.8, YopH inh -7, Mtb bLac sens 1, Mtb H37Rv -1% and Arbovirus anti -3.
`Cc1nnc(-c2cnn(C)c2N)n1Cc1cccc(Cl)c1` gave RecA intein inh -4.5, YopH inh -12, Mtb bLac sens -5, Mtb H37Rv -2% and Arbovirus anti 1.
Screening CSc1nnc(-c2cnccn2)n1CCCN1CCCC1=O returned RecA intein inh -2.3, YopH inh -19, Mtb bLac sens 1, Mtb H37Rv -3% and Arbovirus anti 5.
Screening Cc1nc2ccccc2c(=O)n1-c1ccc([N+](=O)[O-])cc1 returned RecA intein inh 0.0 and Mtb bLac sens 0.
Screening COc1cc(S(=O)(=O)Nc2cccc(C)c2)ccc1NC(=O)c1cccnc1 returned RecA intein inh 0.7, YopH inh -17, Mtb bLac sens 1, Mtb H37Rv -1% and Arbovirus anti -6.
Cc1nnc(SCC(=O)NC23CC4CC(CC(C4)C2)C3)n(N)c1=O was read as RecA intein inh 1.4, Mtb bLac sens -7, Mtb H37Rv 2% and Arbovirus anti 3.
`O=C(c1ccc(N2C(=O)C3CCCCC3C2=O)cc1)N1CCCCC1` (configuration not stated) gave RecA intein inh -2.1, YopH inh -32, Mtb bLac sens -4, Mtb H37Rv 50% and Arbovirus anti 10.
Screening COc1ccc(OCC(=O)NNC(=O)c2ccccn2)cc1 returned RecA intein inh -1.5, YopH inh -55, Mtb bLac sens 99 and Arbovirus anti -17.
For CN(C)C(=O)OCC1COc2ccccc2O1 (configuration not stated) the results were RecA intein inh -0.9, Mtb bLac sens -5 and Mtb H37Rv -5%.
`COCCSc1nc(N)c2c3c(sc2n1)CN(C)CC3` gave RecA intein inh -4.4, Mtb bLac sens -5 and Mtb H37Rv -5%.
For O/N=C/c1ccccc1Oc1ccc(Cl)cc1 the results were Mtb bLac sens -1, Mtb H37Rv 8% and Arbovirus anti 3.
`CCOC(=O)c1cnc2c(Cl)c(Cl)ccc2c1NCCN1CCOCC1` gave RecA intein inh -0.6 and Mtb bLac sens -2.
For CC(=O)c1ccc(N2CCN(c3ccc(C(F)(F)F)cn3)CC2)cc1 the results were RecA intein inh -0.6, YopH inh -18, Mtb bLac sens 0, Mtb H37Rv 13% and Arbovirus anti -3.

Retrieved by structure from the entries so far, three records:
`COCCSc1nc(N)c2c3c(sc2n1)CN(C)CC3` gave RecA intein inh -4.4, Mtb bLac sens -5 and Mtb H37Rv -5%.
Screening Cc1nc2ccccc2c(=O)n1-c1ccc([N+](=O)[O-])cc1 returned RecA intein inh 0.0 and Mtb bLac sens 0.
`CCOC(=O)c1cnc2c(Cl)c(Cl)ccc2c1NCCN1CCOCC1` gave RecA intein inh -0.6 and Mtb bLac sens -2.

Next results:
For c1ccc(OCCOc2cccc3cccnc23)cc1 the results were RecA intein inh 0.7, YopH inh -10, Mtb bLac sens 6, Mtb H37Rv 8% and Arbovirus anti -7.
Screening Cc1c(Cl)cccc1NC(=S)N(CCCN1CCOCC1)Cc1cccs1 returned RecA intein inh -1.9, YopH inh -6, Mtb bLac sens 1, Mtb H37Rv 9% and Arbovirus anti -7.
For CCCCOc1ccc(N(CC(=O)NC2CCCC2)C(=O)CCC(=O)Nc2ccccn2)cc1 the results were RecA intein inh -1.5, YopH inh -20, Mtb bLac sens -2, Mtb H37Rv -1% and Arbovirus anti -8.
Screening O=C(c1cccc([N+](=O)[O-])c1)N1CCN(c2ccc(Cl)cc2)CC1 returned RecA intein inh 3.0, YopH inh -25, Mtb bLac sens 1, Mtb H37Rv 2% and Arbovirus anti 2.
For CC(C)CNC(=S)N(CCCN(C)C)Cc1cc2cc3c(cc2[nH]c1=O)OCCO3 the results were RecA intein inh -1.4 and Mtb bLac sens 0.
For O=C(c1ccc(-c2cccc(C(F)(F)F)c2)o1)N1CCOCC1 the results were RecA intein inh 0.1, YopH inh 31, Mtb bLac sens 3, Mtb H37Rv -1% and Arbovirus anti -5.
For COc1ccc(C)cc1NC(=O)C(OC(=O)c1ccc(Cl)c(S(=O)(=O)N(C)c2ccccc2)c1)c1ccccc1 (configuration not stated) the results were RecA intein inh 0.1, YopH inh -17, Mtb bLac sens 7, Mtb H37Rv 7% and Arbovirus anti 14.
CCOC(=O)c1c(N2C(=O)C3C4C=CC(C4)C3C2=O)sc2c1CCC(C)C2 (configuration not stated) was read as RecA intein inh 2.9, YopH inh -10, Mtb bLac sens -3, Mtb H37Rv -2% and Arbovirus anti -2.
Screening CN(C)/C=N/C(=S)Nc1ccc(Cl)cc1Cl returned RecA intein inh 1.3, Mtb bLac sens -3, Mtb H37Rv 3% and Arbovirus anti 0.
Cc1cccn2cc(-c3ccc(Cl)cc3)nc12 was read as Mtb bLac sens 16, Mtb H37Rv -6% and Arbovirus anti 2.
CC(=O)c1c(C)n(-c2ccc(C)cc2C)c2ccc(O)cc12 was read as RecA intein inh 0.7 and Mtb bLac sens 4.
Screening O=C(Nc1cccc(C(F)(F)F)c1)Nc1ccc(N2CCCC2)c(S(=O)(=O)Nc2ccccc2Cl)c1 returned RecA intein inh -3.0, YopH inh -28, Mtb bLac sens 11, Mtb H37Rv 8% and Arbovirus anti -8.
`Cc1ccc(CSCCC(=O)NCCC2=CCCCC2)cc1` gave RecA intein inh 2.4, YopH inh -23, Mtb bLac sens -1, Mtb H37Rv 5% and Arbovirus anti -4.
CC(C)CC(NC=C1C(=O)OC(C)(C)OC1=O)C(=O)O (configuration not stated) was read as RecA intein inh 1.5, YopH inh -1, Mtb bLac sens 0, Mtb H37Rv -10% and Arbovirus anti 4.
`Cc1ccc2cc(CCNC(=O)Cc3cccs3)c(=O)[nH]c2c1` gave RecA intein inh 0.0, YopH inh -31, Mtb bLac sens 3 and Arbovirus anti -1.
COc1ccc(S(=O)(=O)NCCC(=O)NCc2ccc(F)cc2)cc1 was read as RecA intein inh -8.8, YopH inh -29, Mtb bLac sens inconclusive, Mtb H37Rv 3% and Arbovirus anti 0.
`CC(=O)Nc1ccc(NC(=O)C/C(C)=N/NC(=O)c2cccc3ccccc23)cc1` gave RecA intein inh 2.8 and Mtb bLac sens 6.
Cc1ccn(CC(=O)N2CCCC(N3CCN(c4cccc(Cl)c4)CC3)C2)n1 (configuration not stated) was read as RecA intein inh -0.1 and Mtb bLac sens 0.
For COc1ccc(CNC(=O)N2CCN(S(=O)(=O)c3ccc(C)cc3C)CC2)cc1 the results were RecA intein inh -0.2 and Mtb bLac sens -2.
CC1Cc2ccccc2N1C(=O)C1CCCN(S(=O)(=O)c2cccc3nsnc23)C1 (configuration not stated) was read as RecA intein inh 7.3, YopH inh -16, Mtb bLac sens 2, Mtb H37Rv -9% and Arbovirus anti -7.
For CC1CCC2(CC1)NC(=S)N(C(C)(C)C)N2 (configuration not stated) the results were RecA intein inh 0.5, Mtb bLac sens -2 and Mtb H37Rv -5%.
CCc1ccccc1NC(=O)CSc1nc2ccccc2n1CC(=O)N1CCCC1 was read as RecA intein inh -4.9, YopH inh -16, Mtb bLac sens -3, Mtb H37Rv 5% and Arbovirus anti 6.
For CC(=O)N/C(=C/c1ccccc1)C(=O)NC(Cc1ccccc1)C(=O)O (configuration not stated) the results were RecA intein inh 1.8, YopH inh -24, Mtb bLac sens -4, Mtb H37Rv 3% and Arbovirus anti -9.
COc1ccc(C2=NN(S(C)(=O)=O)C(c3ccc4nccnc4c3)C2)cc1 (configuration not stated) was read as RecA intein inh 2.0, YopH inh -20, Mtb bLac sens -4, Mtb H37Rv -4% and Arbovirus anti 8.
For CCOc1ccc(NC(=O)CCCN2C(=O)C(c3ccccc3)Oc3cccnc32)cc1 (configuration not stated) the results were RecA intein inh 0.8 and Mtb bLac sens -1.
Screening Nc1nc(CSC(=S)N2CCOCC2)nc(Nc2ccccc2)n1 returned RecA intein inh -0.3, YopH inh -17, Mtb bLac sens 11, Mtb H37Rv 6% and Arbovirus anti -1.
COc1ccc(NC(=O)C2Cc3ccccc3CN2C(=O)c2ccco2)cc1 (configuration not stated) was read as RecA intein inh -0.8 and Mtb bLac sens 5.
For Cn1c(N2CCOCC2)c(C#N)c2ccccc21 the results were RecA intein inh -2.4 and Mtb bLac sens -5.
`Cc1ccccc1NC(=O)CCN1CCN(CCO)CC1` gave RecA intein inh -0.6 and Mtb bLac sens -1.
`O=C(CSCc1cccc(Cl)c1)OCc1nc2ccsc2c(=O)[nH]1` gave RecA intein inh 1.2 and Mtb bLac sens -9.
Screening O=C(Nc1cccc([N+](=O)[O-])c1)c1cnccn1 returned RecA intein inh 4.0, YopH inh -1, Mtb bLac sens -9, Mtb H37Rv 0% and Arbovirus anti 5.
For Cc1cccc(NC(=O)c2ccc(COc3ccccc3)o2)n1 the results were RecA intein inh 4.5 and Mtb bLac sens inconclusive.
CC(C)n1c(SCC(=O)Nc2ccccc2)nc2c1c(=O)n(C)c(=O)n2C was read as RecA intein inh -2.3, YopH inh -11, Mtb bLac sens -9, Mtb H37Rv 2% and Arbovirus anti -1.
`COc1ccc(-c2c(-c3ccc(OCC(=O)NN)cc3O)n[nH]c2C)cc1` gave RecA intein inh 0.6, Mtb bLac sens 0 and Mtb H37Rv -11%.
For COC(=O)c1ccc(CSc2nnc(CNC(=O)COc3ccc(Cl)cc3)o2)o1 the results were RecA intein inh -0.3, YopH inh -10, Mtb bLac sens -1, Mtb H37Rv 12% and Arbovirus anti 9.

Screening results deposited in PubChem by several laboratories.

These rows are one share of the data. The share of hits here may be higher or lower than overall.
